Screening data (PubChem)
TRPML1 ag: agonists of human TRPML1 channel | AID 624414 | activation, % (test concentration not listed) | TRPML1-expressing cells, Ca2+ dye fluorescence, FDSS; host cell line not named in the record; reference of the full effect not given here | Q9GZU1 | 410,000 tested, 0.12% active; in the data active = activation above about 50%; inconclusive = about 30% to 50%; inactive = below about 30%; also: 0% is about no effect; the text of the record puts the active cut at 80%
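Tet-induced TRPML1-DL cells, 1,500 per well, cultured overnight, were loaded with a no-wash Ca2+ dye for 45–90 min. Calcium fluorescence was recorded on the FDSS for 110 s after compound addition, before the EC80 agonist (4 uM 54-4) was added.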
PINK1 modulator: PINK1 expression modulation. PINK1 immunofluorescence, high-content cytometry, 24 h. Potency, µM (titrated, usually from 76.6 µM), inactives show at the highest dose activation (PINK1 increase), usual class: activators. 410,000 tested, 0.2% active. AID 624263; active = well fitted activation curve with a large enough effect; inconclusive = small, poorly fitted or top-dose-only effect; inactive = flat fitted curve, though single readings scatter; cell line not stated here;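 also: potency is read from the fitted curve at half-maximal effect; % of control where 0% means no effect; nearly all actives have a fitted effect of over 65% in size; a mitochondrial uncoupler was the plate control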
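PINK1 protein level read as immunofluorescence by microplate cytometer in a fixed, stained stable cell line after 24 h exposure to five compound concentrations, with CCCP as control.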
Sfp PPTase inh: inhibitors of Bacillus subtilis Sfp phosphopantetheinyl transferase; Biochemical Sfp PPTase activity, qHTS; Potency, µM, inactives show max response, negative = inhibition, most hits filed as inhibitors; 310,000 tested, 3.5% active; AID 1490; active = well fitted inhibition curve with a large enough effect; inconclusive = small, poorly fitted or top-dose-only effect, or another doubt; inactive = no such curve, though single readings can be large or run the other way;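 also: the enzyme is Sfp with the accession as filed and its product quenches rhodamine fluorescence; potency is read from the fitted curve at half-maximal effect; 0% = enzyme reaction without inhibitor and -100% = no enzyme wells; top concentration of the series not given in the record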
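With Hepes-Na pH 7.6 buffer containing 10 mM MgCl2, Sfp (15 nM) modified BHQ-2-YbbR (12.5 uM) using rhodamine-CoA (5 uM). Two reads 30 minutes apart at 525/598 nm yielded each well's rate.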
ClpP mod: qHTS Assay for Activators of ClpP; purified B. subtilis ClpP, FRET peptide cleavage, 20 min; Potency, µM (series often up to 57.5 µM), for inactives: at the top dose activity change, negative = active; 340,000 tested, 1.9% active; AID 651965, 2013; active = well fitted falling curve with a large enough effect; inconclusive = small, poorly fitted or top-dose-only effect; inactive = no such curve, though single readings can be large or run the other way; also: potency is read from the fitted curve at half-maximal effect; the source files actives as falling curves though it sought activators and does not explain the sign; nearly all actives have a fitted effect of over 65% in size; many hits overshoot -100%
Target sequence (P80244 whole entry, looked up): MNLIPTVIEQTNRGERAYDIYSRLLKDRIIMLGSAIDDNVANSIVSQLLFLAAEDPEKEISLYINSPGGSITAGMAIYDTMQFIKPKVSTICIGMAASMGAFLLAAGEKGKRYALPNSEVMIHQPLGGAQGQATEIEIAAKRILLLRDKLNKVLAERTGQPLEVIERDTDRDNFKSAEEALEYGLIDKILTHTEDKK
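Buffer: 100 mM Tris/HCl pH8, 100 mM KCl, 0.05% low protease BSA, 2.5% glycerol, 0.01% Tween-20. ClpP 10 microg/mL final; 20 min RT; delta FRET normalized to ADEP and DMSO controls.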
Menin MLL FP FL: displaces fluorescein MLL peptide from human menin; Fluorescence polarization, fluorescein-MLL peptide displacement from menin; 290,000 tested, under 10 active; FP activity change, % at 61.4 µM; AID 1766; inconclusive = falling polarisation curve, or a change in total fluorescence; inactive = total fluorescence flat and polarisation flat or rising; no compound was filed as active; the % refers to the polarisation; negative = inhibition;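 also: % of control where 0% means no effect; inhibitors lower the polarisation; unlabelled MLL peptide was the positive control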
TRPML1 inh: blocks the human TRPML1 channel | AID 624415 | TRPML1-inducible cells, Ca2+ dye fluorescence, FDSS; stronger effect = lower value; inhibition of EC80 agonist-evoked calcium signal | activity change, negative = inhibition, % (no concentration beside the values) | 390,000 tested, 0.02% active; in the data active means activity change below about -50%; inconclusive means about -30% to -50%; inactive means above about -30%;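 also: stimulus is agonist 54-4 at its EC80 concentration; % is scaled to controls: 0 for no effect and ±100 for the full control effect; compound concentration not given in the record; the text of the record puts the active cut at -80%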
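TRPML1-DL cells, Tet-induced overnight (~16 h, 37 °C) at 1,500 cells/well, were loaded with Ca8 no-wash dye plus quencher for 45-90 min at room temperature. Compounds were pinned during FDSS kinetic reading; agonist 54-4 at EC80 (4 uM final) then added.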
TRPV1 potentiator: enhances activation of the human vanilloid receptor TRPV1; Q8NER1; 320,000 tested, 0.02% active; TRPV1-expressing cells, Fluo-8 calcium influx, capsaicin EC20 potentiation; host cell line not named in the record; control for the full effect not named in the record; potentiation, % at 8.33 µM; AID 540277; active means potentiation above 80%; inconclusive means 30% to 80%; inactive means below 30%; also: 0% is about no effect
Target sequence (Q8NER1 whole entry, looked up): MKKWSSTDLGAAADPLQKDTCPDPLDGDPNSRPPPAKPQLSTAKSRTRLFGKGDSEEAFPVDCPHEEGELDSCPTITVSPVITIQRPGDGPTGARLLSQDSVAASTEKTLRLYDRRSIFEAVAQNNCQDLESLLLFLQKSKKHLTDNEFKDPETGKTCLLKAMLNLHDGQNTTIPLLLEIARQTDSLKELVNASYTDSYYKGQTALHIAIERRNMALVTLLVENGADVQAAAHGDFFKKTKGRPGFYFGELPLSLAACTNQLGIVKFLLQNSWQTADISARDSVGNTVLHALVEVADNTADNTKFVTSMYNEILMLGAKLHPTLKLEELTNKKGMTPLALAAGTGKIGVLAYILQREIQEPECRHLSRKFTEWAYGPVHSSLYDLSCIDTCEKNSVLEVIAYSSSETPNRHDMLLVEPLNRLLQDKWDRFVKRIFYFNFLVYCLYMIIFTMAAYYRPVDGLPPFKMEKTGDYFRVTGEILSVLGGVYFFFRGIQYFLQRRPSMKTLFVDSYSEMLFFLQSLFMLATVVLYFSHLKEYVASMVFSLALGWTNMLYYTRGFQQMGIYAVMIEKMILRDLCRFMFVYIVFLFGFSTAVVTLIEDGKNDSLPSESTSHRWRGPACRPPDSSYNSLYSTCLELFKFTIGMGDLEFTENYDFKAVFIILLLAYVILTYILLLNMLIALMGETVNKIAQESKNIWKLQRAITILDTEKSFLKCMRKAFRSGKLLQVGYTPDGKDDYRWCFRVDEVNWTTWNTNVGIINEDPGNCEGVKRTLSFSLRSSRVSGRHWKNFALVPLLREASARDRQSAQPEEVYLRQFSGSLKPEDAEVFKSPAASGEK
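TRPV1-expressing cells were cultured overnight at 35.5C and loaded with Fluo-8 calcium dye for 40 to 90 min at room temperature. After a 10 s baseline, compound was added and calcium influx was read kinetically for 3 min (ex 480/em 520 nm).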
Starred values were filed as active, the others as inactive; ? = inconclusive; . = not tested or not shown; [ ] = another dose, or the depositor's remark.

SMILES	TRPML1 ag	PINK1 modulator	Sfp PPTase inh	ClpP mod	Menin MLL FP FL	TRPML1 inh	TRPV1 potentiator
O=C(NCc1ccc(F)cc1)c1ccc(Cn2c(SCc3ccc(F)cc3)nc3cccnc32)cc1	1.4	1.0%	.	28µM*	.	1	.
CCOCc1cc(CN2CCC(CCC(=O)NC3CC3)CC2)ccc1OC	0.9	-1.0%	16%	-4.3%	0.2	-9	?
CCCNC(=O)Cc1c(C)n(C(=O)c2ccc(Cl)cc2)c2ccc(OC)cc12	-0.3	2.5%	8%	-2.5%	.	74	-7
O=C(Nc1ccncc1)c1ccc2c(c1)C(=O)N(C1CCCCC1)C2=O	-1.0	0.1%	3%	0.9%	1.2	3	-4
O=C(CNC(=O)c1ccco1)N=Nc1c(O)[nH]c2ccc([N+](=O)[O-])cc12	-0.5	-0.4%	10%	.	1.3	-17	-1
O=C(NC1CC1)c1ccc2sc([C@H]3C[C@H](O)[C@@H](CO)O3)nc2c1	-0.6	0.5%	.	-0.1%	.	.	.
COc1cccc(NC(=S)NC(=O)Cc2ccc(Cl)cc2)c1	26	4.8%	27%	.	-5.9	-19	-6
Cn1c(=O)c2c(nc(CN3CCc4ccccc4C3)n2Cc2cccc(Cl)c2)n(C)c1=O	-0.2	7.1%	-6%	-6.7%	-1.7	10	2
O=C(CC1CC2CCC1C2)N1CCN(S(=O)(=O)c2ccc(C(F)(F)F)cc2)CC1 (stereo not drawn)	0.0	5.0%	.	-1.0%	.	-1	.
CCOC(=O)c1c(CCl)nc2ccccc2c1C	1.7	0.6%	2%	-9.0%	-1.7	-3	-2
Cc1noc(-c2ccc(-c3noc(-c4ccc(Cl)cc4)n3)cc2)n1	-0.4	1.6%	.	-2.7%	.	-10	.
CCc1ccc(N(CC)C(=O)Cn2nc(Cc3cccnc3)c3ccccc3c2=O)cc1	-0.5	3.8%	.	-0.2%	.	-12	.
C=C1C=C(C)n2ncc(C(=O)Nc3ccc(NC(C)=O)c(Cl)c3)c2N1	-0.6	0.5%	.	-0.4%	.	.	.
CC(C)CCNS(=O)(=O)c1ccc(-c2ccc(S(=O)(=O)NCCC(C)C)cc2)cc1	1.1	.	16%	-0.7%	4.0	15	1
O=c1oc(-c2cccs2)nc2sc3c(c12)CCCC3	-0.3	11%[38.3 µM]	8%	9.3%	4.6	-2	13
O=C(Nc1cccnc1)c1ccccc1F	-0.3	-1.3%	19%	1.1%	-0.4	46	17
CC(C)CN(C(=O)CSc1nc2ccccc2o1)c1c(N)n(Cc2ccccc2)c(=O)[nH]c1=O	-0.8	4.2%	.	-4.4%	.	-1	-8
c1ccc(-c2nnc(SCc3cn4ccsc4n3)o2)cc1	-0.2	0.0%	5%	-1.8%	0.2	6	-12
CCOC(=O)c1c(NC(=O)c2ccc(S(=O)(=O)N3CCC(C)CC3)cc2)sc2c1CCN(CC)C2	1.2	0.2%	.	19%	.	19	.
COc1ccc2[nH]cc(CCNC(=O)c3ccc4ccccc4n3)c2c1	2.4	-0.2%	9%	0.2%	6.0	8	14
COc1ccc2oc(C(=O)NC3(C)CCS(=O)(=O)C3)c(C)c2c1 (stereo not drawn)	0.8	4.0%	.	-1.2%	.	15	-9
CC(C)(O)c1[nH]c2cc(F)ccc2c1C(C)(C)O	-1.1	11%	7%	-11%	-1.7	-6	22
Cc1ccc(/C=N/NC(=O)CCCOc2ccc(Cl)cc2Cl)cc1[N+](=O)[O-]	5.3	5.2%	-18%	2.6%	6.1	11	-40
COCCn1c(=O)c(CCc2ccccc2)nc2cnc(Oc3ccc(OC)cc3)nc21	.	1.7%	17%	.	3.7	.	.
COc1ccc(NC(=S)NNC(=O)OC(C)(C)C)cc1OC	-0.1	3.4%[38.3 µM]	-3%	0.5%	5.5	-8	24
CC(C)n1cc(CN2CCCC(C(=O)Nc3cccc(-c4cc5ccccc5[nH]4)c3)C2)cn1 (stereo not drawn)	1.6	-1.8%	-26%	.	-4.2	0	24
CCC(CO)Oc1cc(NCc2cc(C)cc(C)c2)c2ncn(C(C)C)c2c1 (stereo not drawn)	0.1	?	.	-0.6%	.	-4	.
Cc1ccc(N2CC(C(=O)OCc3ccccc3F)CC2=O)cc1 (stereo not drawn)	1.3	1.1%	15%	-3.1%	2.6	-5	-11
COc1cc(C(=O)NC(=S)Nc2ccc(Cl)cn2)cc(OC)c1OC	1.8	5.7%	-16%	-0.5%	-4.2	-1	-40
COc1ccc(OC(=O)c2cn(-c3cccc(OC)c3)c(=O)c3ccccc23)cc1	2.0	-0.1%	.	-12%	.	16	.
CCN(CC)C(=O)c1cn(CC)c(=O)c2cc(OC)c(OC)cc12	0.1	-1.3%	5%	?	-0.5	-10	-5
COc1ccc(OC)c(-n2c(=S)[nH]c3cc(C(=O)NCCCN4CCCC4=O)ccc3c2=O)c1	.	.	?	.	2.4	.	3
C/C(=N\N1CCN(c2ccc(Cl)cc2)CC1)c1ccco1	-0.1	-2.2%	-1%	-0.8%	0.8	-23	0
O=C(COC(=O)C1CC2C=CC1C2)Nc1ccccc1 (stereo not drawn)	-0.6	0.8%	11%	1.1%	4.1	10	-11
O=C(NOCc1ccccc1)c1cccc([N+](=O)[O-])c1	-0.3	-0.2%	.	0.6%	.	-13	.
C=C1CC[C@@]23CC[C@]4(C)[C@@](OC2=O)([C@@H]3C1)[C@H]1O[C@H]1C1[C@@]2(C)CC[C@H](O)C(C)(C)C2CC[C@]14C (stereo partly drawn)	0.2	5.1%	.	3.0%	.	70	1
COc1ccc(CCNC(=O)Nc2nc(C(N)COCc3ccccc3)cs2)cc1OC (stereo not drawn)	-0.2	0.7%	.	-1.5%	.	.	.
O=C(NCCc1ccccc1)c1nc(-c2cccs2)no1	2.2	2.7%	11%	.	-5.9	-15	-2
COc1ccc(-c2cc(C(F)(F)F)nc(N3CCCCCC3)n2)cc1	-0.2	?	1%	22µM*	2.7	23	0
S=C1NCN(Cc2ccco2)CN1	0.0	1.0%	-3%	-2.1%	-0.3	-5	?
O=C(CS(=O)(=O)c1ccccc1)Nc1nc(-c2ccc(F)cc2)cs1	-0.5	0.8%	5%	-1.1%	2.9	14	17
CC(C)(C)c1ccc(CN(Cc2ccccc2)C(c2ccccn2)c2nnnn2C(C)(C)C)cc1 (stereo not drawn)	56*	1.3%	7%	-3.0%	0.1	3	-12
CCSc1c(C(=O)NC)ccc2c1C(=O)c1ccccc1C2=O	-1.4	3.0%	6%	-2.7%	2.6	-2	-1
Cc1ccc(C2(C)NC(=O)N(CCOc3ccccc3)C2=O)cc1 (stereo not drawn)	-0.9	-1.9%	7%	2.7%	0.9	2	12
Cc1ccc(C(=O)Nc2cccnc2)cc1NC(=O)c1ccco1	1.0	0.5%	15%	-2.6%	7.2	-3	-7

An excerpt of these results, with values under each structure:
Below each SMILES – TRPML1 ag	PINK1 modulator	Sfp PPTase inh	ClpP mod	Menin MLL FP FL	TRPML1 inh	TRPV1 potentiator
CCN(CC)C(=O)c1cn(CC)c(=O)c2cc(OC)c(OC)cc12
 : 0.1	-1.3%	5%	?	-0.5	-10	-5
CCOCc1cc(CN2CCC(CCC(=O)NC3CC3)CC2)ccc1OC
 : 0.9	-1.0%	16%	-4.3%	0.2	-9	?

Following part:
SMILES	TRPML1 ag	PINK1 modulator	Sfp PPTase inh	ClpP mod	Menin MLL FP FL	TRPML1 inh	TRPV1 potentiator
COC(=O)/C(=C\Nc1ccc(Oc2ccc(F)cc2F)nc1)NC(=O)c1ccccc1	-0.5	7.4%	5%	.	-0.3	9	-19
C=CCN1C(=O)C2C(C(=O)NC)C3C=CC2(O3)C1C(=O)NCc1ccc(OC)cc1 (stereo not drawn)	0.5	-0.4%	24%	-1.9%	4.2	-11	-1
CCOC1=NC(C(=O)O)c2ccccc2/C(=C(/C)Cl)N1 (stereo not drawn)	-0.9	-1.8%	-3%	1.2%	-1.2	2	-8
Cc1cccc(C)c1Nc1nnc(SCC(=O)c2ccc3c(c2)NC(=O)CO3)s1	-1.6	0.1%	10%	35µM*	3.3	-12	0
Cc1ccc(CNC(=O)COc2ccc(S(=O)(=O)NC(C)C)cc2)cc1	-0.3	-2.2%[38.3 µM]	3%	-1.8%	0.5	-15	?
O=C(CCc1nc2ccccc2c(=O)[nH]1)NCc1cccc(Cl)c1	-0.6	9.9%	-24%	-3.2%	3.2	41	-1
COc1cc(/C=C(/C#N)C(=O)NCc2ccccc2)cc(OC)c1OC	0.0	0.5%	-2%	-8.3%	-0.8	-10	-13
CN(C)c1ncc([N+](=O)[O-])cc1C(F)(F)F	0.0	2.7%	-15%	-3.0%	2.3	15	.
Cc1ccc(-n2cnc3scc(-c4cccs4)c3c2=O)cc1	5.7	0.1%	-2%	-14%	-0.8	43	-9
O=C(CC1(O)CCCCC1)OC1CCCC1	-0.3	2.5%	.	0.6%	.	-3	.
CCCCN1C(=O)NC2NC(=O)NC21 (stereo not drawn)	-0.3	-0.2%	20%	-0.7%	4.0	11	-2
O=C(CC1Sc2ccccc2NC1=O)Nc1cccc(-c2nnc3n2CCCCC3)c1 (stereo not drawn)	2.1	-1.0%	-21%	-0.4%	2.1	14	-19
CCc1nc2nc(C)c(NS(=O)(=O)c3ccc(Cl)s3)c(=O)n2[nH]1	0.0	-2.2%	18%	.	-0.3	9	26
CC1(C)CC(O)(CNCc2ccc3c(c2)OCO3)CCO1 (stereo not drawn)	0.7	-1.6%	24%	-0.2%	-0.2	10	-9
O=C(N/N=C/c1ccc2c(c1)OCO2)C1CC1	0.2	-1.4%	1%	-6.1%	.	-5	-11
O=C(CNS(=O)(=O)c1ccccc1)NCc1ccccn1	0.5	?	-7%	-2.7%	1.2	-11	-21
CCCCNC(=O)c1c(CSc2ccccc2)noc1C(=O)NCc1ccccc1	1.2	2.5%	8%	-3.9%	-7.8	1	?
COc1ccc(C(=O)NC(=S)N(C)Cc2ccccc2)cc1Br	0.8	1.8%	12%	.	3.0	-17	-1
COc1ccccc1NS(=O)(=O)c1cc(NC(=O)c2[nH]c(C)c(C(C)=O)c2C)ccc1N1CCOCC1	0.6	5.5%	1%	-1.3%	0.0	-3	15

Outcome played no part in choosing rows. About 4.4% of those tested had a hit in this group.
